Screening results deposited in PubChem by ICCB-Longwood Screening Facility, Harvard Medical School.
PV pol inh: poliovirus RdRp elongation inhibitors, primary screen, biochemical, fluorescence polarization, total intensity; hit rate 0.66% among 150,000; poliovirus polymerase elongation; active compounds read low; % elongation, % (compound at 16.7 µg/mL); in the data active means % elongation below about 90%; further: some results filed as inactive read as strong as hits
Target sequence (P03300 1749-2209 limits assumed): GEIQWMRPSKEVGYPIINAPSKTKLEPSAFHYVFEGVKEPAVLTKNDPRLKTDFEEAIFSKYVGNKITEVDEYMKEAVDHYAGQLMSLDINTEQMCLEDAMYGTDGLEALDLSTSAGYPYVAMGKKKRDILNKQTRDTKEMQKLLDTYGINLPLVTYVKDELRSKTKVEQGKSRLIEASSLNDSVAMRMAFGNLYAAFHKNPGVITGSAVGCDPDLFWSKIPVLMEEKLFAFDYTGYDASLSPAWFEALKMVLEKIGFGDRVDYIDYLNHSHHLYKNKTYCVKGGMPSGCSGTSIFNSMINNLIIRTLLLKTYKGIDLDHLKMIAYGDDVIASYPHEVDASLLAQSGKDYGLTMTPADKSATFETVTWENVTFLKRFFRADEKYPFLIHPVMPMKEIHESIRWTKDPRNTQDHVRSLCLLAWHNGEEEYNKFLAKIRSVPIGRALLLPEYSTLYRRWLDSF
PV pol inh intensity: also measured in PV pol inh; calls as there; % elongation; measured here: total intensity read-out; formula for this scale not given here;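 total fluorescence in place of polarization; lower means less elongation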
Active calls of the source: *. An excerpt (hit frequency here may not be typical).

#	SMILES	PV pol inh intensity	PV pol inh
1	COC(=O)c1ccc(-n2nnc(-c3nc(-c4ccc5c(c4)OCO5)no3)c2C)cc1	110	113
2	Cc1cc(C)cc(NC(=O)C2CCCN(c3nnc(-n4c(C)ccc4C)s3)C2)c1 (stereo not given)	103	101
3	COc1ccc(Br)c2c1-c1nc(NC(=O)c3ccccc3SC)sc1C2	106	103
4	CCOC(=O)c1c(S(=O)(=O)NCC(=O)N2CCN(c3cc(C)ccc3C)CC2)c(C)n(C)c1C	104	99
5	CC1CCc2nc3ccc(S(=O)(=O)N4CCC(C(=O)NCc5ccccc5Cl)CC4)cc3c(C(=O)O)c2C1 (stereo not given)	112	114
6	Cc1cccc(NCc2nnc3n2CCCCC3)c1C	113	111
7	COc1cccc(N2C(=O)N(Cc3ccc(C#N)cc3)c3ccccc3S2(=O)=O)c1	107	102
8	CC1CCN(S(=O)(=O)c2nnc(NC(=O)c3cccc(Cl)c3)s2)CC1	97	101
9	COCCNC(=O)CCCn1c(SCC(=O)NCc2ccc(C)cc2)nc2c(sc3ccccc32)c1=O	111	106
10	CCC(=O)N1CCc2cc(CNS(=O)(=O)c3ccc(NC(=O)CC(C)C)cc3)ccc21	106	110
11	COc1ccc(Nc2c(-c3ccc(N4CCOCC4)cc3)nc3ncccn23)cc1OC	111	110
12	Cc1ccc(Cn2c(CCCNC(=O)C3CCCCC3)nc3ccccc32)cc1	98	102
13	O=C(c1ccco1)n1nc(-c2ccccc2)nc1NCc1ccccc1Cl	104	102
14	CCOC(=O)c1[nH]c(C)c(CCC(=O)N2CCN(c3ccc(OC)cc3)CC2)c1C	114	106
15	CCOc1ccc(CCNC(=O)CCc2c(C)nc3c4c(C)cc(C)nc4nn3c2C)cc1	104	103
16	Cc1nn(C)c2c1c(-c1ccccc1)cc(=O)n2CC(=O)Nc1ccccc1C(F)(F)F	115	109
17	CCC1CN(S(=O)(=O)c2ccc3c(c2)NC(=O)CC(=O)N3)c2cc(Cl)ccc2O1 (stereo not given)	108	106
18	CCC1CN(C(=O)N2CCC(C(=O)NCCOC)CC2)c2ccccc2O1 (stereo not given)	109	109
19	COC(=O)c1ccc(NC(=O)CCn2cnnn2)cc1	102	108
20	COc1ccc(Cl)cc1NC(=O)c1sc(-n2nc(C)c(Cc3ccccc3)c2C)nc1C	107	102
21	COCCCNc1nc(NCc2ccccc2OC)c2cnn(C)c2n1	100	106
22	O=C(CNC(=O)c1ccccc1F)OCc1cc(=O)n2nc(C3CC3)sc2n1	100	105
23	COc1ccccc1CNS(=O)(=O)c1cc(-c2cc(C)no2)ccc1C	97	100
24	CSc1ncc(C(=O)Nc2ccc(F)cc2F)c(-c2ccccc2)n1	108	103
25	Cc1ccc(N(Cc2cccs2)C(=O)c2ccccc2Cl)cc1	100	103

Further structures follow:
#	SMILES	PV pol inh intensity	PV pol inh
26	Cc1ccc(Cc2nc3ccccc3nc2SCC(=O)N2CCC(C)CC2)cc1	111	109
27	CC(C)C(=O)OCc1cc(=O)n2nc(C3CC3)sc2n1	128	115
28	O=C(CN1CCCN(Cc2cccc(F)c2)S1(=O)=O)Nc1ccc2c(c1)OCCO2	112	110
29	CCc1nc2onc(C)c2c(=O)n1CC(=O)O	111	114
30	Cc1nn(-c2ccc(N3CCCCC3)nn2)c(C)c1CCC(=O)NCc1ccc(OC(C)C)cc1	93	103
31	CCCCCOC(=O)CSc1ncnc2sc3c(c12)CCC(C)C3 (stereo not given)	109	107
32	CC(=O)c1ccc(NC(=O)CSc2nc(C3CCCC3)nc3c2c(=O)n(C)c(=O)n3C)cc1	108	108
33	CCN(CC)CCNC(=O)CCn1c(=O)c2cccn2c2cccnc21	112	107
34	O=C(Nc1ccc(Br)cc1)c1cccc(S(=O)(=O)N2CCc3ccccc32)c1	105	106
35	O=C(CSCc1cnn(-c2ccccc2)c1-n1cccc1)NCc1ccccc1Br	94	108
36	Cc1ccccc1NC(=O)CSc1nc(=O)n(CCN2CCOCC2)c2c1CCC2	106	104
37	Cc1ccc(Nc2c(-c3ccc(C)cc3)nc3cnccn23)cc1	109	108
38	CCCCCn1c(=O)[nH]c2cc(C(=O)N3CCN(c4cc(Cl)ccc4C)CC3)ccc2c1=O	112	109
39	CC(=O)N1CCc2cc(Br)cc(S(=O)(=O)CCC(=O)N3CCN(c4cccc(C)c4C)CC3)c21	110	106
40	CCCCNC(=O)CSc1nc2cc3c(cc2c(=O)n1CCCC(=O)NCc1ccc(OC)cc1)OCO3	107	103
41	Cc1ccc(-n2ccnc(NCc3cccs3)c2=O)cc1C	104	112
42	O=C(Cn1c(SCCOc2ccccc2Cl)nc2ccccc21)N1CCCCC1	112	107
43	COc1ccc(CNC(=O)c2cnc3ccc(C)cn3c2=O)cc1	108	102
44	CCOc1cc(CNC(=O)c2ccc(NC(=O)c3nsc4ccccc34)cc2)ccc1OC	110	112
45	Cc1cc(NS(=O)(=O)c2ccc(NC(=O)COc3c(C)cc(Br)cc3C)cc2)no1	96	103
46	CC1CCN(S(=O)(=O)c2ccc3nc(NCc4ccccc4)ccc3c2)CC1	97	103
47	Cn1cc(S(=O)(=O)c2ccccc2)c(=O)c2cc(F)c(N3CCCCCC3)cc21	105	108
48	O=C(COC(=O)c1cc(-c2cccs2)nc2ccccc12)c1ccc(F)cc1	112	110
49	CCc1nnc2c(NCc3cccc(OC)c3)nc3ccccc3n12	105	102
50	O=C(Cn1c(=O)n2nc(-c3cccc(F)c3)nc2c2ccccc21)N1CCN(c2ccccc2F)CC1	103	110

(further entries)
#	SMILES	PV pol inh intensity	PV pol inh
51	Cc1ccc(NC(=O)Cn2c(=O)c3ccccc3n3nncc23)cc1	105	106
52	CCOC(=O)c1ccccc1NC(=O)Cn1c(=O)n(CCCC(=O)NCc2ccc3c(c2)OCO3)c(=O)c2ccccc21	110	108
53	CCn1c(CN2CCCCC2)nc2cc(NC(=O)c3ccc([N+](=O)[O-])cc3)ccc21	96	100
54	CCCc1nn2c(=O)cc(COC(=O)c3ccco3)nc2s1	107	99
55	CCOc1ccc(C2C(=O)N(C3CCCCCC3)CC(=O)N2CCc2ccccc2)cc1OC (stereo not given)	111	108
56	CCOc1ccc(CNC(=O)CCn2cccn2)cc1OC	105	103
57	COc1ccc(CCNC(=O)CSc2nnc(-c3ccc(C)cc3)c(-c3ccc(C)cc3)n2)cc1OC	123	116
58	CCOc1ccccc1NC(=O)Cn1c(=O)n(Cc2ccco2)c(=O)c2sc3ccccc3c21	114	108
59	Cn1c(=O)n(C)c2cc(S(=O)(=O)Nc3ccccc3C(=O)O)ccc21	109	106
60	Cc1ccc(C)c(NC(=O)CSc2nc(-c3ccccc3Cl)nc3c2Cc2c(CO)cnc(C)c2O3)c1	100	107
61	Cc1cccc(OC(=O)c2nc(SCc3ccccc3F)ncc2Cl)c1	110	109
62	COc1ccccc1CNC(=O)CN1C(=O)CCc2cc(S(=O)(=O)N3CCOCC3)ccc21	109	117
63	CCC(Sc1nnc2c(n1)[nH]c1ccccc12)C(=O)Nc1nnc(C(C)C)s1 (stereo not given)	105	105
64	O=C(CCCn1c2ccccc2c(=O)c2ccccc21)Nc1cccc(Cl)c1	113	109
65	CN(C(=O)C1CCCN(c2ncnc3c2nc2n3CCCCC2)C1)c1ccccc1F (stereo not given)	107	105
66	CCS(=O)(=O)c1ccc(C(=O)N2CCN(c3nc4c(OC)ccc(C)c4s3)CC2)cc1	105	109
67	O=c1c2cc3c(cc2n(Cc2ccc(Cl)cc2)c(=O)n1Cc1nc(-c2ccccc2)no1)OCO3	92	100
68	CCCN(CCC)CCCNC(=O)c1cc2c(-c3ccc(OC)c(OC)c3)nn(C)c2s1	50*	83*
69	Cc1ccc(-c2nc3c4c(-c5ccccc5)c(-c5ccccc5)oc4ncn3n2)cc1	111	107
70	COCCNc1sc(S(=O)(=O)c2ccc(C)cc2)nc1S(=O)(=O)c1ccc(C)cc1	109	116
71	CCOC(=O)c1cccc2c1N[C@@H](c1ccc(F)cc1)[C@H]1CC=C[C@@H]21	114	111
72	CC(NC(=O)c1ccco1)c1nc(-c2ccccc2)no1 (stereo not given)	108	107
73	Cc1ccc(C(=O)N2c3ncnn3C3(CCCCC3)[C@@H]3CCCC[C@@H]32)cc1	111	106
74	Cc1ccc(-n2nnnc2C2CCN(S(=O)(=O)c3ccc(OC(F)(F)F)cc3)CC2)cc1	111	116
75	CC1=C(c2ccc(C)c(C)c2)S(=O)(=O)N=C1N1CCC(C(=O)NCc2ccccc2C)CC1	116	112

The last 2 records of the part before are carried over, then new ones follow:
#	SMILES	PV pol inh intensity	PV pol inh
74	Cc1ccc(-n2nnnc2C2CCN(S(=O)(=O)c3ccc(OC(F)(F)F)cc3)CC2)cc1	111	116
75	CC1=C(c2ccc(C)c(C)c2)S(=O)(=O)N=C1N1CCC(C(=O)NCc2ccccc2C)CC1	116	112
76	Cc1nnc(NC(=O)c2cccn(Cc3ccc(Cl)cc3)c2=O)s1	113	106
77	CC(=O)Nc1ccc(NC(=O)c2c(C)nn(-c3ccccc3)c2-n2cccc2)cc1	108	103
78	CCN(C(=O)c1oc2ccc(S(=O)(=O)N3CCCCCC3)cc2c1C)c1ccccc1	99	110
79	Cc1oc2ncnc(N3CCCCC3)c2c1C(=O)Nc1cccc(Cl)c1C	95	99
80	Cc1c(Cl)cccc1NC(=O)c1ccc2c(c1)nnn2C1CCCC1	99	104
81	Cc1ccc(CN2C(=O)c3ccccc3Sc3ccc(C(=O)NC4CCCCC4)cc32)cc1	110	105
82	COc1ccc(CNC(=O)c2ccc(-c3nc(CSc4ccccc4)c(C)o3)cc2)cc1OC	116	109
83	Cc1ccc(CN(Cc2ccco2)C(=O)c2oc3ccc(C)cc3c2C)cc1	113	111
84	COc1ccc(C2C=C(c3ccc(Br)cc3)Nc3nnnn32)c(OC)c1 (stereo not given)	107	101
85	Cc1ccc(NC(=O)CSc2nnc(N)s2)c(C)c1	97	102
86	CCC(=O)N1CCc2cc(Br)cc(S(=O)(=O)N3CCCC(C(=O)NCc4ccc(C)cc4)C3)c21 (stereo not given)	109	103
87	COc1ccc(CCn2c(=O)c3cccnc3n(CC(=O)Nc3ccc(C)cc3C)c2=O)cc1OC	107	102
88	CC(=O)N(Cc1cccnc1)c1nc2c(C)c(C)ccc2s1	107	109
89	COc1ccc(-c2cc(C(F)(F)F)nc(S(C)(=O)=O)n2)cc1	104	100
90	COc1ccc(Nc2oc(/C=C/c3ccc(OC)c(OC)c3)nc2C#N)cc1	107	103
91	Cc1nc2c(C(=O)NCc3ccccc3Cl)c[nH]n2c(=O)c1Cc1cccc(Cl)c1	104	101
92	CCC(C(=O)Nc1ccccc1OC)n1c(C(=O)OC)cc2sc(Cl)cc21 (stereo not given)	107	107
93	O=C(Nc1nc2n(n1)C(c1ccc(F)cc1)C=C(c1ccccc1)N2)c1ccco1 (stereo not given)	132	112
94	O=C(O)c1cccc(Nc2ncnc3ccc(Br)cc23)c1	98	103
95	Cc1sc2c(c1C)c(=O)n(-c1cccc(C(F)(F)F)c1)c(=O)n2Cc1ccccc1C#N	109	111
96	COc1cccc(CNC(=O)c2cnc(N3CCCC3)nc2C)c1	105	102
97	Cc1ccc2c(c1)c1c(c(=O)n(-c3cccc(Cl)c3)c(=O)n1CC(=O)c1ccc(Cl)cc1)n2C	107	107
98	O=C(c1ccc2c(Cl)c3c(nc2c1)CCCC3)N1CCN(c2cccc(C(F)(F)F)c2)CC1	103	99
99	Cc1ccc(OCCSc2nc3ccccc3n2CC(=O)N2CCCCC2)c(C)c1	110	113
100	O=C(CSc1nc2c(c(=O)[nH]1)CN(Cc1ccc3c(c1)OCO3)CC2)Nc1ccc(F)cc1	116	113

Additional structures.
#	SMILES	PV pol inh intensity	PV pol inh
101	O=C(CSc1nc(-c2ccco2)nc2cc(=O)[nH]n12)Nc1ccc(F)cc1	109	107
102	O=C(Nc1cccc(Cl)c1)C(Cc1ccccc1)n1cccc1 (stereo not given)	106	102
103	Cc1c(C(=O)NCc2ccccc2Cl)sc2nc3n(c(=O)c12)CCCCC3	98	106
104	N#Cc1c(-n2ncnc2-c2ccccc2C(F)(F)F)sc2c1CCCCC2	109	107
105	O=C(NCc1cccnc1)c1nn(-c2ccccc2F)nc1CO	104	99
106	COc1ccc2[nH]c(C)c(CCNS(=O)(=O)c3cc(F)ccc3OC)c2c1	110	109
107	CCOCCCNC(=O)C1CCN(C(=O)c2cc3sccc3n2C)CC1	109	108
108	CCOC(=O)N1CCC(NC(=O)c2ccc3c(c2)N(Cc2ccccc2C)C(=O)c2ccccc2S3=O)CC1 (stereo not given)	106	105

A portion from further up, for reference:
#	SMILES	PV pol inh intensity	PV pol inh
89	COc1ccc(-c2cc(C(F)(F)F)nc(S(C)(=O)=O)n2)cc1	104	100
90	COc1ccc(Nc2oc(/C=C/c3ccc(OC)c(OC)c3)nc2C#N)cc1	107	103
91	Cc1nc2c(C(=O)NCc3ccccc3Cl)c[nH]n2c(=O)c1Cc1cccc(Cl)c1	104	101
92	CCC(C(=O)Nc1ccccc1OC)n1c(C(=O)OC)cc2sc(Cl)cc21 (stereo not given)	107	107
93	O=C(Nc1nc2n(n1)C(c1ccc(F)cc1)C=C(c1ccccc1)N2)c1ccco1 (stereo not given)	132	112
94	O=C(O)c1cccc(Nc2ncnc3ccc(Br)cc23)c1	98	103
95	Cc1sc2c(c1C)c(=O)n(-c1cccc(C(F)(F)F)c1)c(=O)n2Cc1ccccc1C#N	109	111
96	COc1cccc(CNC(=O)c2cnc(N3CCCC3)nc2C)c1	105	102
97	Cc1ccc2c(c1)c1c(c(=O)n(-c3cccc(Cl)c3)c(=O)n1CC(=O)c1ccc(Cl)cc1)n2C	107	107
98	O=C(c1ccc2c(Cl)c3c(nc2c1)CCCC3)N1CCN(c2cccc(C(F)(F)F)c2)CC1	103	99
99	Cc1ccc(OCCSc2nc3ccccc3n2CC(=O)N2CCCCC2)c(C)c1	110	113
100	O=C(CSc1nc2c(c(=O)[nH]1)CN(Cc1ccc3c(c1)OCO3)CC2)Nc1ccc(F)cc1	116	113
101	O=C(CSc1nc(-c2ccco2)nc2cc(=O)[nH]n12)Nc1ccc(F)cc1	109	107
102	O=C(Nc1cccc(Cl)c1)C(Cc1ccccc1)n1cccc1 (stereo not given)	106	102
103	Cc1c(C(=O)NCc2ccccc2Cl)sc2nc3n(c(=O)c12)CCCCC3	98	106
104	N#Cc1c(-n2ncnc2-c2ccccc2C(F)(F)F)sc2c1CCCCC2	109	107
105	O=C(NCc1cccnc1)c1nn(-c2ccccc2F)nc1CO	104	99
